PABP FP inh: PABP poly(A) RNA binding inhibitors, primary screen, biochemical, fluorescence polarization, uHTS. inhibition, % at 35 µM. hit rate 1% among 290,000. Polyadenylate-binding protein 1 (Homo sapiens), P11940;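 active = 50% or more with normal probe brightness, or confirmed in later tests; inconclusive = above 50% with abnormal brightness, or retests that disagree; inactive = below 50% or failed in later tests; about a fifth of its hits are not listed in these tables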;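 also: calls also rest on retests at 20 µM and on dose response follow-up; controls were probe without protein and protein plus probe with vehicle; some compounds called inactive have numbers as strong as hits; many hits fall short of the cut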
Target sequence (P11940 whole entry, looked up): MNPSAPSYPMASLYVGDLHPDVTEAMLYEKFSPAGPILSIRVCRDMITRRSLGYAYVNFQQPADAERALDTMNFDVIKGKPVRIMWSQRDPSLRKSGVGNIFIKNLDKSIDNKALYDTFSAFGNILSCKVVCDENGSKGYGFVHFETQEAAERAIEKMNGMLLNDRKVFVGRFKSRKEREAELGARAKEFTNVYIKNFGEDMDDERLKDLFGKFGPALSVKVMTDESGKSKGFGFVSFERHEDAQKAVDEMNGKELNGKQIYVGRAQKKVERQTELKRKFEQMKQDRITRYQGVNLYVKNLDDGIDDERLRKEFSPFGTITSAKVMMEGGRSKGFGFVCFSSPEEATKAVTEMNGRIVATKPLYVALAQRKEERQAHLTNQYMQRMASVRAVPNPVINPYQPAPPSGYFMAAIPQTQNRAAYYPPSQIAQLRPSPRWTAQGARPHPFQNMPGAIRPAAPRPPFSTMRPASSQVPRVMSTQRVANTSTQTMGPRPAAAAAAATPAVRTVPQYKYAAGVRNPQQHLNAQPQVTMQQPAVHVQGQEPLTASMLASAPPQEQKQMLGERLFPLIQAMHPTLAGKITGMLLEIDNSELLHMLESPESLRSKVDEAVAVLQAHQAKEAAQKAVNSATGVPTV
Rce1 inh: yeast Rce1p protease inhibitors, primary screen, biochemical, fluorescence, cell-free homogeneous | AID 2563, 2010 | calls only | yeast membranes, quenched prenylated peptide cleavage fluorescence | hit rate 0.27% among 290,000;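 active = fall in fluorescence gain of 50% or more versus controls, with final raw signal at or below 3038400; inconclusive = same 50% fall but final raw signal above 3038400; inactive = fall in fluorescence gain under 50%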;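 also: plate controls were neutral control wells for no effect and wells lacking membranes for full effect; tested at 10 µM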
Target sequence (Q03530 whole entry, looked up): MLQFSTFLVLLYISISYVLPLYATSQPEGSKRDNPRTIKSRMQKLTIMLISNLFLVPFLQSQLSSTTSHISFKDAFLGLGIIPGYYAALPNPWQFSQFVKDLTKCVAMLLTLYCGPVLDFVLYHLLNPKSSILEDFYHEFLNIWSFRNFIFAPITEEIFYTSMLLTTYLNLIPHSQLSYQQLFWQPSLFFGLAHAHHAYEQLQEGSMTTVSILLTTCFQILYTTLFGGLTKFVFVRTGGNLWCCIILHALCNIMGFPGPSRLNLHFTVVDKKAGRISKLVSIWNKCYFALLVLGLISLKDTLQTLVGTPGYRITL
HIV Env fusion: inhibitors of HIV-1 Env-driven cell-cell fusion, primary screen, HeLa-JRFL effector, CEM21 target cells, luciferase; inhibition, % at 12.3 µM; hit rate 1.1% among 360,000;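 active = mean replicate inhibition score of at least 50 and every replicate individually at or above 50; inconclusive = only one of the two criteria met; inactive = mean below 50 and not all replicates reaching 50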;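 also: 0% = plate neutral controls and 100% = maraviroc near 300 nM; one replicate is shown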
CSC inhib: cancer stem cell viability inhibitors, primary screen, luminescence | inhibition, % at 7.5 µM | AID 2717, 2010 | cancer stem cell-like cells viability | hit rate 1.1% among 300,000;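 active = mean at 75% or more and at least half the replicates too; inconclusive = mean and replicates disagree; tested in HMLE shEcad cells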;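 also: 0% = median of negative and 100% = median of positive control wells; the first replicate is given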
Yeast UUG start: modulators of yeast start codon fidelity, primary screen, whole organism, S. cerevisiae, single point, plate reader; S. cerevisiae UUG-firefly luciferase reporter, luminescence/redox ratio; activity score, % at 18.7 µM; hit rate 0.13% among 350,000; AID 602363, 2012;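 active = replicate mean at a twofold rise or more, about +100% in these data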;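 also: firefly luciferase made from a UUG start codon reports start codon fidelity; reporter light over untreated wells divided by growth signal over untreated wells; some hits fall short of that in this replicate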
MT1-MMP act inh: blockers of MT1-MMP proenzyme processing, primary screen, HT1080 RFP-PRO-GFP cells, GFP/RFP fluorescence; Matrix metalloproteinase-14 (Homo sapiens), P50281; GFP/RFP ratio fluorescence, overnight; percent of plate control window, DMSO zero; GFP/RFP ratio change, % at 20 µM; hit rate 0.061% among 360,000; AID 651647, 2012;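 active = GFP/RFP ratio change of at least 30% with cell ATP level not reduced by more than half and red fluorescence within 50% of control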; also: strong numbers were not always called active
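Test system: HT1080 RFP-PRO-GFP cells; Benchmarks: DMSO and RFP-L50D-GFP cell wells; Timing: cells overnight before dosing, compound overnight, 37 °C, 5% CO2; Compound: one 20 µM compound dose with 1% DMSO; Read-out: GFP/RFP fluorescence ratio.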
eIF4H inh: human eIF4H binding inhibitors, primary screen, translation initiation inhibitor project, biochemical, uHTS, fluorescence polarization. eIF4H fluorescence polarization binding assay. inhibition, % at 35 µM. hit rate 0.94% among 290,000;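 active = 50% or more with normal probe brightness, or confirmed in later tests; inconclusive = above 50% with abnormal brightness, or retests that disagree; inactive = below 50% or failed in later tests; about a fifth of its hits are not listed in these tables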;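 also: calls also rest on retests at 20 µM and on dose response follow-up; 0% = protein and probe with vehicle and 100% = probe without protein; strong numbers were not always called active; many hits fall short of the cut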
eIF4H inh retest: also measured in eIF4H inh; calls as there; inhibition, %; compound at 20 µM; confirmation average;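 mean of two retest wells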
PABP FP inh retest: recorded beside PABP FP inh, whose call it bears; inhibition, %; compound at 20 µM; confirmation repeats;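 mean of two retest wells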
MT1-MMP act inh RFP: further read-out of MT1-MMP act inh, marked with its call; RFP signal change, %; measured here: RFP expression control read;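 0 = vehicle wells; hits needed this value within 50% of zero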
An asterisk follows results filed as active. These rows are one share of the data; count on the stated rates, not on these rows.

Results for O=C1OC(c2ccc(Cl)cc2)=N/C1=C\N1CC2CC(C1)c1cccc(=O)n1C2 (configuration not stated) ?
PABP FP inh: 7; Rce1 inh: inactive; HIV Env fusion: 16; CSC inhib: -19; MT1-MMP act inh: 2; eIF4H inh: -5; MT1-MMP act inh RFP: -3

What do the screens show for `CC(=O)c1ccc(OCC(=O)N2CCCC(N3CCN(c4ccccc4C)CC3)C2)cc1` (configuration not stated)?
PABP FP inh: -2; Rce1 inh: inactive; HIV Env fusion: 4; CSC inhib: -12; Yeast UUG start: -8; MT1-MMP act inh: -1; eIF4H inh: -11; MT1-MMP act inh RFP: -9

How did CSCCC(c1nnnn1C(C)(C)C)N1CCC2(CC1)C(=O)NCN2c1ccccc1 (configuration not stated) do in these assays?
HIV Env fusion: -35; Yeast UUG start: -8; MT1-MMP act inh: 1; MT1-MMP act inh RFP: -2

What do the screens show for `CC1C(c2cccs2)=[N+]([O-])C(C)(C(=O)c2cccs2)N1O` (configuration not stated)?
PABP FP inh: 0; Rce1 inh: inactive; HIV Env fusion: 9; Yeast UUG start: -15; MT1-MMP act inh: 3; eIF4H inh: 10; MT1-MMP act inh RFP: 5

How did Cc1ccnc(-n2c(C)nc3ccccc3c2=O)c1 do in these assays?
PABP FP inh: 0; HIV Env fusion: -20; CSC inhib: -1; Yeast UUG start: -10; MT1-MMP act inh: 4; eIF4H inh: -3; MT1-MMP act inh RFP: 6

Results for COCCCNC(=O)c1c(NC(=O)c2ccccc2Cl)n(Cc2ccccc2)c2nc3ccccc3nc12 ?
PABP FP inh: 59; Rce1 inh: inactive; HIV Env fusion: -21; CSC inhib: 0; Yeast UUG start: -19; MT1-MMP act inh: -31; eIF4H inh: 42*; eIF4H inh retest: 101*; PABP FP inh retest: 40; MT1-MMP act inh RFP: -2

How did C/C=C1/CN2[C@@H]3C4CO[C@@H]3c3c([nH]c5cc(OC)ccc35)[C@@H]2CC14 (some centres not stated) do in these assays?
Rce1 inh: inactive; CSC inhib: -2; Yeast UUG start: -15; MT1-MMP act inh: -5; MT1-MMP act inh RFP: 3

How did Cc1cc(=O)oc2cc(OCC(=O)N3CCN(C(C)c4ccccc4)CC3)c(Cl)cc12 (configuration not stated) do in these assays?
HIV Env fusion: 1; Yeast UUG start: 6; MT1-MMP act inh: -7; MT1-MMP act inh RFP: -5

What do the screens show for `CCOP(=O)(OCC)C(NC(=O)c1ccc(OC)cc1)C(Cl)(Cl)Cl` (configuration not stated)?
PABP FP inh: -3; Rce1 inh: inactive; HIV Env fusion: 7; CSC inhib: -9; MT1-MMP act inh: 0; eIF4H inh: -6; MT1-MMP act inh RFP: 2

Results for O=C(COc1ccc(Cl)cc1)N1CCN(C2CCCC2)CC1 ?
PABP FP inh: 0; Rce1 inh: inactive; HIV Env fusion: 1; Yeast UUG start: -13; MT1-MMP act inh: 3; eIF4H inh: 7; MT1-MMP act inh RFP: 4

Results for Cc1ccccc1-n1c(-c2ccoc2)nc2ccccc2c1=O ?
PABP FP inh: -9; Rce1 inh: inactive; HIV Env fusion: 8; CSC inhib: -14; MT1-MMP act inh: -2; eIF4H inh: 1; MT1-MMP act inh RFP: -5

Results for CCOC(=O)C1CCN(/C=C2/C(=O)NC(=O)N(Cc3ccco3)C2=O)CC1 ?
PABP FP inh: 33; Rce1 inh: inactive; CSC inhib: -4; Yeast UUG start: -2; MT1-MMP act inh: -4; eIF4H inh: -31; MT1-MMP act inh RFP: 3

How did CC1C(C)N1CC(O)Cn1ccnc1[N+](=O)[O-] (configuration not stated) do in these assays?
PABP FP inh: 6; Rce1 inh: inactive; HIV Env fusion: 0; CSC inhib: -6; Yeast UUG start: -32; MT1-MMP act inh: 4; eIF4H inh: 8; MT1-MMP act inh RFP: 7

What do the screens show for `CN(Cc1ccccc1)C1CCCN(C(=O)COc2ccccc2Cl)C1` (configuration not stated)?
PABP FP inh: 1; CSC inhib: 12; Yeast UUG start: 0; MT1-MMP act inh: 0; eIF4H inh: -10; MT1-MMP act inh RFP: -1

Results for COC(=O)C1=C(c2cc3ccccc3o2)C[C@@H]2CC[C@H]1N2C(=O)NC(C)C ?
Rce1 inh: inactive; HIV Env fusion: -26; CSC inhib: -8; Yeast UUG start: 5; MT1-MMP act inh: 5; MT1-MMP act inh RFP: -4

How did Cc1c(N=Cc2c(O)n(CCc3ccccc3)c(=O)[nH]c2=O)c(=O)n(-c2ccccc2)n1C do in these assays?
PABP FP inh: -4; Rce1 inh: inactive; CSC inhib: -11; Yeast UUG start: 11; MT1-MMP act inh: -5; eIF4H inh: -1; MT1-MMP act inh RFP: 4

What do the screens show for `CN(C)C(=S)SSC(=S)N(C)C`?
PABP FP inh: -27; Rce1 inh: inactive; HIV Env fusion: -3; CSC inhib: 4; Yeast UUG start: -72; MT1-MMP act inh: 8; eIF4H inh: 2; MT1-MMP act inh RFP: 3

How did CC(=NCc1cccnc1)c1c(O)n(-c2ccc(Cl)cc2)c(=O)[nH]c1=O do in these assays?
PABP FP inh: -11; HIV Env fusion: 6; CSC inhib: -6; MT1-MMP act inh: 2; eIF4H inh: -9; MT1-MMP act inh RFP: 6

How did COC(=O)C1=C(c2ccc(F)cc2OCc2ccccc2)C[C@@H]2CC[C@H]1N2C(=O)NCc1ccc2c(c1)OCO2 do in these assays?
HIV Env fusion: 4; CSC inhib: 15; Yeast UUG start: -18; MT1-MMP act inh: -4; MT1-MMP act inh RFP: -11

Results for N=C1c2ccccc2CN1NC(=O)c1ccc(Cl)cc1 ?
PABP FP inh: -4; Rce1 inh: inactive; CSC inhib: 1; Yeast UUG start: -22; MT1-MMP act inh: 3; eIF4H inh: -8; MT1-MMP act inh RFP: 2

Continued, starting with the last two of the part before.
How did COC(=O)C1=C(c2ccc(F)cc2OCc2ccccc2)C[C@@H]2CC[C@H]1N2C(=O)NCc1ccc2c(c1)OCO2 do in these assays?
HIV Env fusion: 4; CSC inhib: 15; Yeast UUG start: -18; MT1-MMP act inh: -4; MT1-MMP act inh RFP: -11

Results for N=C1c2ccccc2CN1NC(=O)c1ccc(Cl)cc1 ?
PABP FP inh: -4; Rce1 inh: inactive; CSC inhib: 1; Yeast UUG start: -22; MT1-MMP act inh: 3; eIF4H inh: -8; MT1-MMP act inh RFP: 2

Results for CN1C(=O)C(=Cc2ccc(N3CCCCCC3)cc2)C(=O)N(C)C1=O ?
PABP FP inh: inconclusive; Rce1 inh: inactive; HIV Env fusion: 2; CSC inhib: -7; Yeast UUG start: -20; MT1-MMP act inh: 23; eIF4H inh: inconclusive; MT1-MMP act inh RFP: 23

How did COC(=O)C1=C(c2cccc3c2S(=O)(=O)c2ccccc2-3)C[C@@H]2CC[C@H]1N2C(=O)N1CCc2cc(OC)c(OC)cc2C1 do in these assays?
HIV Env fusion: -77; CSC inhib: -3; Yeast UUG start: -21; MT1-MMP act inh: 8; MT1-MMP act inh RFP: 0

How did CCOC(=O)C1(CCc2ccccc2)CCN(Cc2ccc3c(c2)OCCO3)CC1 do in these assays?
PABP FP inh: -9; Rce1 inh: inactive; HIV Env fusion: 11; CSC inhib: 43; Yeast UUG start: -9; MT1-MMP act inh: 5; eIF4H inh: -12; MT1-MMP act inh RFP: -16

What do the screens show for `COC(=O)C1=C(c2c(C)noc2C)C[C@@H]2CC[C@H]1N2C(=O)N1CCC(O)(c2ccc(Cl)cc2)CC1`?
HIV Env fusion: -59; CSC inhib: -3; Yeast UUG start: 2; MT1-MMP act inh: 4; MT1-MMP act inh RFP: 0

What do the screens show for `CSc1ncc(Br)c(N2CC2)n1`?
HIV Env fusion: -10; Yeast UUG start: -9; MT1-MMP act inh: -2; MT1-MMP act inh RFP: -1

What do the screens show for `Oc1c(Cl)cccc1Cc1cc(Cl)cc(Cl)c1O`?
HIV Env fusion: 28; Yeast UUG start: -17; MT1-MMP act inh: 5; MT1-MMP act inh RFP: -34

How did O=C1NC(=O)N(Cc2ccccc2Cl)C(=O)/C1=C/N1CCOCC1 do in these assays?
PABP FP inh: inconclusive; Rce1 inh: inactive; HIV Env fusion: -58; CSC inhib: -3; Yeast UUG start: -9; MT1-MMP act inh: -26; eIF4H inh: inconclusive; MT1-MMP act inh RFP: 5

What do the screens show for `CCCC12CN3CN(C1)CC(CCC)(C3)C2O` (configuration not stated)?
PABP FP inh: 2; Rce1 inh: inactive; CSC inhib: -9; Yeast UUG start: -9; MT1-MMP act inh: -3; eIF4H inh: -10; MT1-MMP act inh RFP: 2

What do the screens show for `Brc1ccc2c(c1)C(OC1CN3CCC1CC3)c1ccccc1CS2` (configuration not stated)?
PABP FP inh: 4; Rce1 inh: inactive; CSC inhib: -1; Yeast UUG start: -5; MT1-MMP act inh: -18; eIF4H inh: 1; MT1-MMP act inh RFP: -14

What do the screens show for `Cc1cc(S(=O)(=O)NC(C)C)ccc1OCC(=O)N1CCN(Cc2ccc3c(c2)OCO3)CC1`?
PABP FP inh: 4; Rce1 inh: inactive; CSC inhib: 14; Yeast UUG start: 19; MT1-MMP act inh: 13; eIF4H inh: 4; MT1-MMP act inh RFP: -18

Results for Cc1ccc2[nH]c(=S)n(-c3cccnc3)c(=O)c2c1 ?
PABP FP inh: -3; Rce1 inh: inactive; HIV Env fusion: 2; CSC inhib: -3; Yeast UUG start: -8; MT1-MMP act inh: 2; eIF4H inh: -10; MT1-MMP act inh RFP: 2

Results for Cc1[nH]c2ccccc2c1C(=O)C(=O)N1CC2CC(C1)c1cccc(=O)n1C2 (configuration not stated) ?
PABP FP inh: -3; Rce1 inh: inactive; HIV Env fusion: 16; CSC inhib: -2; MT1-MMP act inh: -5; eIF4H inh: 2; MT1-MMP act inh RFP: 0

What do the screens show for `COc1ccc2[nH]c(C)c(CCNCc3cccnc3)c2c1`?
CSC inhib: -22; Yeast UUG start: -19; MT1-MMP act inh: -4; MT1-MMP act inh RFP: 3

3 compounds out of the list, ordered by count of non-hydrogen atoms, rising.
What do the screens show for `Oc1c(Cl)cccc1Cc1cc(Cl)cc(Cl)c1O`?
HIV Env fusion: 28; Yeast UUG start: -17; MT1-MMP act inh: 5; MT1-MMP act inh RFP: -34

Results for Cc1ccc2[nH]c(=S)n(-c3cccnc3)c(=O)c2c1 ?
PABP FP inh: -3; Rce1 inh: inactive; HIV Env fusion: 2; CSC inhib: -3; Yeast UUG start: -8; MT1-MMP act inh: 2; eIF4H inh: -10; MT1-MMP act inh RFP: 2

How did O=C1NC(=O)N(Cc2ccccc2Cl)C(=O)/C1=C/N1CCOCC1 do in these assays?
PABP FP inh: inconclusive; Rce1 inh: inactive; HIV Env fusion: -58; CSC inhib: -3; Yeast UUG start: -9; MT1-MMP act inh: -26; eIF4H inh: inconclusive; MT1-MMP act inh RFP: 5

High-throughput results: PubChem, several laboratories
